Vaccinia Venus = qHTS for Stage-Specific Inhibitors of Vaccinia Orthopoxvirus: Venus Reporter Primary qHTS; Vaccinia virus Venus reporter expression, fluorescence; Potency, µM (top dose mostly 36.5 µM), inactives show at the highest dose activity change, negative = inhibition, actives largely listed as inhibitors; 330,000 tested, 0.46% active; AID 720580, 2013; active means well fitted inhibition curve with a large enough effect; inconclusive means small, poorly fitted or top-dose-only effect; inactive means no such curve, though single readings can be large or run the other way; tested in A549 cells; also: nearly all actives have a fitted effect of over 30% in size; inactives centre near -10
Vaccinia mCherry = qHTS for Stage-Specific Inhibitors of Vaccinia Orthopoxvirus: mCherry Reporter Primary qHTS; AID 720579, 2013; 310,000 tested, 0.63% active; Vaccinia virus mCherry reporter infection, fluorescence; about a quarter of the inactives have no number; Potency, µM (series often up to 36.5 µM), for the others: at the highest dose activity change, negative = inhibition, usual class: inhibitors; active = well fitted inhibition curve with a large enough effect; inconclusive = small, poorly fitted or top-dose-only effect; inactive = no such curve, though single readings can be large or run the other way; tested in A549 cells; also: nearly all actives have a fitted effect of over 35% in size; inactives centre near -10
* = called active by the depositor; i = inactive; ? = inconclusive; . = not tested or not shown; & = joins results of further samples; [ ] = another dose, or the depositor's remark. % is scaled to controls: 0 for no effect and ±100 for the full control effect; potency is read from the fitted curve at half-maximal effect.

Start of the listing, in advance (6 entries):
The line under a structure holds: Vaccinia Venus | Vaccinia mCherry
> CCOc1ccccc1OCC(=O)NNC(=O)Cn1cnc2c1c(=O)n(C)c(=O)n2C
  -3% | -9%
> Cc1ccc(CNC(=O)c2cnc(N(C)C)nc2)cc1
  -4% | 0%
> CSc1n[nH]c(-c2ccco2)n1
  -20% | -13%
> O=C(CNS(=O)(=O)c1ccc(F)cc1)N1CCN(c2ccc(F)cc2)CC1
  -18% | 0%
> COc1cc(CNC(C)(C)CO)cc(Br)c1OCc1ccc(Cl)cc1Cl
  ? | ?
> COc1ccc(OCC(=O)O/N=C(\N)c2ccc(OC)cc2)cc1
  15% | -13%

This part in full, from the first entry:
The line under a structure holds: Vaccinia Venus | Vaccinia mCherry
> CCOc1ccccc1OCC(=O)NNC(=O)Cn1cnc2c1c(=O)n(C)c(=O)n2C
  -3% | -9%
> Cc1ccc(CNC(=O)c2cnc(N(C)C)nc2)cc1
  -4% | 0%
> CSc1n[nH]c(-c2ccco2)n1
  -20% | -13%
> O=C(CNS(=O)(=O)c1ccc(F)cc1)N1CCN(c2ccc(F)cc2)CC1
  -18% | 0%
> COc1cc(CNC(C)(C)CO)cc(Br)c1OCc1ccc(Cl)cc1Cl
  ? | ?
> COc1ccc(OCC(=O)O/N=C(\N)c2ccc(OC)cc2)cc1
  15% | -13%
> C#CCNC(=O)C[C@@H]1C[C@@]2(C(=O)OCC)CCC=C2N(Cc2cccc3ccccc23)C1=O
  -10% | -16%
> CCOc1ccccc1-n1c(CNc2ccc(F)cc2)nnc1SCC(=O)NCc1ccco1
  -14% | i
> S=c1[nH]c(=S)c2n[nH]nc2[nH]1
  -10% | 19%
> COc1ccc(/C=N/NC(=O)CCOc2ccccc2C)cc1OC
  -10% | -17%
> COc1ccc([C@H]2/C=C\CN(C(=O)c3ccc(C)cc3)[C@@H](C)C(=O)N2Cc2ccc(F)cc2)cc1
  -26% | i
> CN(C)CCCNc1nc2sc3c(c2c(=O)n1CCc1ccccc1)CCCCC3
  -13% | -11%
> CCCCc1c(C)nc2c(OC)cccc2c1SCCC(=O)O
  -18% | -16%
> CC12CCC(C(=O)N(CC(O)CN3CCN(Cc4ccccc4)CC3)C1=O)C2(C)C (stereo not drawn)
  21% | i
> Cc1nc(Cc2nnc(SCC(=O)Nc3c(C)cccc3C)o2)cs1
  -15% | -14%
> Cc1ccc(NC(=O)c2ccc(CSc3nnc(C)s3)cc2)cc1
  ? | .
> Cc1noc(-c2ccc(NCc3ccccc3)c([N+](=O)[O-])c2)n1
  -6% | -14%
> CCOc1ccccc1NC(=O)C1=C(C)Nc2ncnn2C1c1cccs1 (stereo not drawn)
  -4% | -16%
> CN1CCN(C(=S)Nc2cccc(Cl)c2)CC1
  -2% | -12%
> Cc1ccccc1Cn1cnc2nc3c(cc2c1=O)CC(C)CC3 (stereo not drawn)
  -13% | -8%
> CCCc1cc(=O)oc2c(CN(CC)CC)c(O)c(Cl)cc12
  8% | i
> Cc1ccc(C)c(N2CCN(C(=O)CCCn3c(=O)c4cccn4c4cccnc43)CC2)c1
  -5%[7.34 µM] | -17%[7.34 µM]
> Cc1cccnc1C(NC(=O)C1CCN(CCCOc2ccc(F)cc2)CC1)c1ccccc1 (stereo not drawn)
  -18% | 13%
> CC1=C(C(=O)N(C(C)C)C(C)C)CC(CC(=O)NCc2cccc3ccccc23)C(=O)N1Cc1ccccc1 (stereo not drawn)
  -12% | 7%
> O=C1CCC[C@@H]2Cc3nc4cc5c(cc4cc3[C@@H]3CCN1[C@H]23)OCO5
  -11%&-4% | i
> Cc1cc(NC(=O)c2cnn3c(C(F)F)cc(C4CC4)nc23)no1
  -13% | .
> CC(C)c1ccc(OCC(=O)N2CCCCCC2)c(Br)c1
  -19% | -8%
> COc1ccccc1N1CCN(c2nc(CNC(=O)C3CCOC(C)(C)C3)nc3ccccc23)CC1 (stereo not drawn)
  -9% | -12%
> CCn1c(/C=C/c2ccc(O)cc2)nc2ccccc2c1=O
  -22% | i
> CCN(CC)C(=O)CC(c1cc(OC)c(OC)c(OC)c1)c1c(OC)cc(OC)c2c(-c3ccccc3)cc(=O)oc12 (stereo not drawn)
  -26% | i
> Cc1ccccc1C(=O)NC(=S)Nc1ccc(N2CCOCC2)cc1
  -13% | i
> Cc1nc2ccccn2c1-c1ccnc(=S)[nH]1
  3%[7.34 µM] | i[7.34 µM]
> COc1cccc(C(=O)NC(=S)Nc2ccc3c4c(cccc24)CC3)c1
  -13% | .
> Cc1cccc(C)c1NC(=O)CCC(=O)N1Cc2ccccc2Oc2ncccc21
  -9% | -11%
> CCOc1ccc2nc(-c3ccccc3)[nH]c2c1
  ? | ?
> c1ccc(COc2ccc(-c3cc4nc(NCCN5CCOCC5)ccn4n3)cc2)cc1
  -15% | 2%
> Cc1ccc(CN2C(=O)CCC2C(=O)NCCN2CCOCC2)cc1 (stereo not drawn)
  -13% | -15%
> Cc1nc2ccccc2c(=O)n1/N=C/c1cc(Br)ccc1O
  -25% | ?
> Cc1ccc(CN(C(=O)COc2c(C)cccc2C)C2CCS(=O)(=O)C2)o1 (stereo not drawn)
  -10% | -20%
> COc1cc(Br)c(Br)c(Br)c1N
  -7%[7.34 µM] | -17%[7.34 µM]
> CC1CCN(C(=O)C2CCCN(c3ncnc4c3nc3n4CCCCC3)C2)CC1 (stereo not drawn)
  2% | ?
> O=C(NCC1CCCO1)c1cccc(NS(=O)(=O)c2ccccc2)c1 (stereo not drawn)
  -3% | -6%
> CN(Cc1ccc(Cl)cc1)C(=O)c1[nH]c(C(F)(F)F)nc1-c1ccccc1
  4% | 46%[activator]
> N#Cc1ccccc1NC(=S)Nc1ccc(F)cc1
  -13% | -14%
> NS(=O)(=O)c1ccc(NC(=O)COC(=O)c2cn(-c3ccccc3)nc2-c2ccc(F)cc2)cc1
  ? | -26%
> COc1ccccc1C(=O)NC(=S)Nc1ccc(NC(=O)c2ccco2)cc1
  -3% | -3%
> c1ccc(N2CCN(c3ncnc4[nH]ncc34)CC2)cc1
  3%[7.34 µM] | 0%[7.34 µM]
> CCOC(=O)[C@H]1[C@H]2COc3ccc(C)cc3[C@@H]2N2C(=O)c3ccc(C)cc3NC(=O)[C@@]12C
  -12% | ?
> Cc1cc(C)cc(C(=O)NC(=S)Nc2ccc(-c3cc4ccccc4oc3=O)cc2)c1
  2% | -10%
> Cc1nn(Cc2ccccc2)c(C)c1C(=O)OCC(=O)Nc1cccc(S(N)(=O)=O)c1
  -2% | 1%

Next structures.
The line under a structure holds: Vaccinia Venus | Vaccinia mCherry
> CC(C)(O)[C@@H]1CC(=O)[C@]2(C)[C@H](CC[C@@]3(C)[C@H](c4ccoc4)OC(=O)[C@H]4O[C@]432)[C@@]1(C)/C=C\C(=O)O
  1% | i
> S=c1[nH]cc(Oc2ccc(Cl)cc2Cl)c(=S)[nH]1
  10% | ?
> O=C(NCCN1CCOCC1)c1ccccc1-c1ccccc1
  -14% | i
> CCCCCCC[N+](CC)(CC)CCCCc1ccc(Cl)cc1
  -20% | -7%
> COC(=O)[C@@H]1CCCN1Cc1ccc2c(c1)CN(Cc1ccccc1C)CCO2
  -3% | -14%
> CCCCCN(C(=O)CCC(=O)OCC(=O)Nc1cccc(SC)c1)c1c(N)n(CCCC)c(=O)[nH]c1=O
  -9% | -10%
> CN(C)/C=N/c1nc2nccc(-c3ccc(Cl)cc3)n2n1
  -5% | i
> Cc1onc(-c2ccccc2)c1C(=O)N1CCN(C)CC1
  -7% | -18%
> COC(=O)CCS(=O)(=O)c1ccc(Cl)cc1
  -4% | -13%
> N#Cc1cn(C2OC(CO)C(O)C2O)c2ncnc(N)c12 (stereo not drawn)
  ? | ?

Grouped by structure: the compounds so far containing bromine (4)
The line under a structure holds: Vaccinia Venus | Vaccinia mCherry
> COc1cc(CNC(C)(C)CO)cc(Br)c1OCc1ccc(Cl)cc1Cl
  ? | ?
> CC(C)c1ccc(OCC(=O)N2CCCCCC2)c(Br)c1
  -19% | -8%
> Cc1nc2ccccc2c(=O)n1/N=C/c1cc(Br)ccc1O
  -25% | ?
> COc1cc(Br)c(Br)c(Br)c1N
  -7%[7.34 µM] | -17%[7.34 µM]

(listing goes on)
Compound | Vaccinia Venus | Vaccinia mCherry
COc1cc2nc(NC3CCN(C)CC3)nc(N3CCCN(C)CC3)c2cc1OC | -27% | -11%
O=C(COC(=O)/C=C/c1ccc(Cl)cc1)NC(=O)NCc1ccccc1 | -29% | -28%
Cc1noc(C)c1S(=O)(=O)N1CCCC(C(=O)Nc2ccc(C(C)C)cc2)C1 (stereo not drawn) | -16% | i
CCNC(=S)Nc1ccc(S(=O)(=O)Nc2cc(C)nc(C)n2)cc1 | -17% | -5%
CN(C(=O)c1cccc(NC(=O)Cc2ccc(NC(=O)C3CCN(C(=O)c4ccccc4)CC3)cc2)c1)C1CCCC1 | -13% | 5%
Cc1cc(C)c(-n2nnnc2SCC(=O)c2cccs2)c(C)c1 | -12%[7.34 µM] | i[7.34 µM]
Cc1ccc(-n2c(C)nc3ccsc3c2=O)cc1 | -2% | -10%
OC(CN1CCOCC1)c1ccccc1 (stereo not drawn) | -20% | i
Cc1cc(OCC(=O)Nc2ccc(F)c(F)c2)nc(C(C)C)n1 | -22% | -22%
CCc1ccc2c(CN3CCc4cc(OC)c(OC)cc4C3)cc(=O)oc2c1 | -13% | -24%
Cc1ccc(-n2ncc3c2CC(C)(C)CC3NC(=O)CCc2cccnc2)cc1 (stereo not drawn) | -16% | -8%
CN(C)CCNc1nc(-c2ccccc2CO)c2sccc2n1 | -3% | -1%
CC(C)C(=O)N1c2nc(-c3ccco3)nn2C2(CCCCC2)[C@@H]2CCCC[C@@H]21 | 1% | 8%
Cc1ccc(/C=C/C(=O)NCCc2ccccc2)o1 | -6% | -21%
CCOc1ccc(N2C(=O)c3[nH]nc(-c4ccccc4)c3C2c2ccc(O)c(OC)c2)cc1 (stereo not drawn) | -12% | -13%
Cc1cccc(C)c1NC(=O)C(Cl)C(=O)c1ccccc1 (stereo not drawn) | 8% | -8%
COc1ccc(NS(=O)(=O)c2cc3c(cc2C)N(C(C)=O)CCO3)cc1 | 5%&-1% | 8%&-6%
CSc1nc(C)cc(C)c1C(N)=O | 1% | -11%
Cc1c(C(=O)O)sc(=S)n1-c1ccccc1 | 5% | 8%
Cn1nnnc1SCC(=O)Nc1sccc1C(N)=O | -4% | -14%
CC(C)(C)c1cnnn1-c1ccc(NC(=O)c2ccc3c(c2)OCO3)cc1 | -17% | i
Clc1ccccc1NN(Cc1ccccn1)c1ccccc1Cl | -3% | -8%
O=S(=O)(c1cccc(C(F)(F)F)c1)N1CCCC1c1cccnc1 (stereo not drawn) | -8% | -1%
O=C(CSc1nc2ccccc2[nH]1)Nc1nc(-c2ccccc2)c(-c2ccccc2)o1 | -7% | -12%
CCOC(=O)c1[nH]c(C)c(C(=O)OCC(=O)N2c3ccccc3CC2C)c1C (stereo not drawn) | -8% | -20%
c1ccc(-c2noc(-c3cccc4ccccc34)n2)cc1 | -1% | .
COC(=O)CCCCC1SCC2NC(=O)NC21 (stereo not drawn) | 2% | 6%
COc1ccc(-c2[nH]ncc2C=O)cc1OC | -1% | i
CC(Sc1ccccc1)C(=O)N1CCN(S(=O)(=O)c2ccccc2)CC1 (stereo not drawn) | -13% | -20%
CCC1CN(S(=O)(=O)c2cc(-c3onc(C)c3C)ccc2C)c2cc(Cl)ccc2O1 (stereo not drawn) | -11% | -18%
O=C(CCSc1ccccc1)N1CCN(C(=O)c2ccco2)CC1 | -8% | -16%
CC1(C)CC(=O)C2=C(C1)N(c1ccccc1)C(=O)CC2c1ccc(O)cc1 (stereo not drawn) | -10% | -12%
CSc1ccc(S(=O)(=O)N2CCC(C(=O)NCc3ccco3)CC2)cc1 | -10% | 21%
O=C1CC2(CCCC2)C(=O)N1CN1CCN(S(=O)(=O)c2ccc(F)cc2F)CC1 | -10% | -1%
CCCCCn1c(=O)c(C(=O)Nc2nc(CC(=O)OCC)cs2)c(O)c2ccccc21 | -8% | -8%
O=C(c1cccs1)N(c1cccc(Cl)c1)C1C=CS(=O)(=O)C1 (stereo not drawn) | -3% | i
CCS(=O)(=O)c1ccc(O)c(NC(=O)c2ccc(S(=O)(=O)N3CCCCCC3)cc2)c1 | 6% | i
CC(=O)Nc1cc(C(=O)N2CCSCC2)cc2ncn(CCc3ccccn3)c12 | 2% | -14%
COC(=O)Cc1c(C)nc2nc(NCc3ccccc3OC)[nH]n2c1=O | -11% | -27%[1.46 µM]
COc1ccc(Nc2ccc(N3C(=O)CC(C)C3=O)cc2[N+](=O)[O-])cn1 (stereo not drawn) | 1% | 10%
Cc1ccc(/C=N/n2c(-c3ccncc3)n[nH]c2=S)cc1 | -21% | -6%
CCc1ccc(-n2c(=O)c3ccccc3n(CC(=O)NCc3ccco3)c2=O)cc1 | -17% | -9%
COc1ccc2nc(C)cc(SCC(=O)O)c2c1 | -2%&5% | -13%&-2%
Cc1ccccc1N1C(=S)NC2c3ccccc3OC1(C)C2C(=O)N(C)C (stereo not drawn) | 5% | -9%
C=CCN(c1ccc(C(=O)Nc2ccc(NC(C)=O)cc2)cc1)S(C)(=O)=O | -1% | 11%
Cc1ccc2oc(C(=O)N3CCC(c4nc5ccccc5s4)CC3)c(C)c2c1 | -16% | i
